# High-throughput results deposited in PubChem by Emory University Molecular Libraries Screening Center.
# Measles inh: inhibitors of measles virus growth in infected cells | infected Vero cells, GFP fluorescence, 64 h; active compounds read low | z-score (concentration not given with the values) | 33,000 compounds, 0.1% hits;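 active = z-score under -3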;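 note: score is relative to mean and SD of the compound wells of a plate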
# An asterisk follows results filed as active.
cpd	smiles	Measles inh
1	COC(=O)C(NC(=O)c1ccccc1OC)(Nc1ncc(Cl)cc1Cl)C(F)(F)F (centres undefined)	1.1
2	CC(=O)Oc1ccc2c(=O)c(Oc3cc(C)cc(C)c3)coc2c1	1.6
3	O=C(CN1C(=O)CSc2ccc(S(=O)(=O)N3CCOCC3)cc21)N1CCCCCC1	0.98
4	O=C(Cn1c(=O)[nH]c2ccccc2c1=O)NCc1cccc(Cl)c1	-0.69
5	Cc1cc(NC(=O)CCS(=O)(=O)c2nc(-c3cccs3)cc(C(F)(F)F)n2)n(-c2ccccc2)n1	0.35
6	O=C(NCc1ccccc1)C1CCCN(c2nc3ccccc3[nH]2)C1 (centres undefined)	-0.58
7	Cc1ccc2oc(-c3cccc(N=Cc4cc5c(cc4[N+](=O)[O-])OCO5)c3)nc2c1	-0.57
8	COc1cc2[nH]c(=S)nc(NCc3ccccc3)c2cc1OC	0.71
9	Cc1cccc(NC(N)=Nc2nc(CSc3ccc(Cl)cc3)cc(=O)[nH]2)c1	0.03
10	CC(=O)Nc1cccc(-c2cn3ccsc3n2)c1	-0.99
11	O=[N+]([O-])c1ccc(N2CCCC2)cc1SCCO	-0.42
12	CCCCc1ccc(NC(=O)COc2ccc(C)c(C)c2)cc1	-0.74
13	CCOC(=O)c1cc2c(=O)n3ccccc3nc2n(C2CCCCC2)c1=NC(=O)c1cccc([N+](=O)[O-])c1	0.93
14	CCN(CC)S(=O)(=O)c1cc(C(=O)Nc2ccc(I)cc2)ccc1Cl	-0.16
15	COc1ccc(-n2nc(C(=O)NCC(=O)NC(C)C)c3ccccc3c2=O)c(OC)c1	0.38
16	COc1cccc(NC(=O)c2sc3nc(C)nc(N4CCCCC4C)c3c2C)c1 (centres undefined)	-0.66
17	Cc1ccccc1Cn1c(CCNC(=O)c2ccc(F)cc2)nc2ccccc21	-0.03
18	CN1C(=O)NC2(O)C(=O)c3ccccc3C12O (centres undefined)	0.11
19	CCOC(=O)C1=CC2(SC=C(C(=O)OCC)S2)C2=C(S1)C(C)(C)Nc1ccccc12 (centres undefined)	0.03
20	COC(=O)c1cccc(N2C(=O)C3C4C=CC(C4=C(c4ccccc4)c4ccccc4)C3C2=O)c1 (centres undefined)	-0.09
21	COc1cc(C(=O)Nc2ccccc2F)ccc1OCc1cccc(F)c1	-0.38
22	CCCN1C(=O)C(O)(CC(=O)c2cccs2)c2cc(Br)ccc21 (centres undefined)	-0.06
23	CC(=O)Nc1sc2c(c1C(=O)Nc1c(C)cccc1C)CCCCC2	0.48
24	CNc1ccc(Cl)c2c1C(=O)c1ccccc1C2=O	0.61
25	O=C(Cc1ccccc1)NCCn1ccc2ccccc21	-0.44
26	Cc1ccc(C(=O)Nc2ccccc2Cl)cc1	-0.71
27	CCOc1ccccc1NC(=O)c1sc2nc(C)nc(N3CCC(C)CC3)c2c1C	-0.61
28	CN(C)c1ccc(C2C3=C(CC(C)(C)CC3=O)Nc3nc(SCc4ccc([N+](=O)[O-])cc4)[nH]c(=O)c32)cc1 (centres undefined)	-0.63
29	O=C(O)CN1C(=O)SC(CC(=O)Nc2nccs2)C1=O (centres undefined)	1.1
30	CCOc1ccccc1NC(=O)C1(S(=O)(=O)c2ccc(C)cc2)CC1	-0.17

# Some of the entries so far, as labelled records.
25. O=C(Cc1ccccc1)NCCn1ccc2ccccc21
  Measles inh: -0.44
16. COc1cccc(NC(=O)c2sc3nc(C)nc(N4CCCCC4C)c3c2C)c1 (centres undefined)
  Measles inh: -0.66

# The list continues.
cpd	smiles	Measles inh
31	CC(=O)N1CCc2cc(Br)cc(S(=O)(=O)N(C)Cc3ccccc3)c21	0.1
32	CC(Sc1nnnn1-c1ccccc1)C(=O)NC(c1ccccc1)c1ccccc1 (centres undefined)	-0.48
33	COCCN1C(=O)c2ccccc2C(C(=O)Nc2ccccc2N2CCN(C)CC2)C1c1c[nH]c2ccccc12 (centres undefined)	-1.5
34	COc1ccc(NC(=O)CCn2nc(-c3ccc(Cl)cc3)c3ccccc3c2=O)cc1	-0.57
35	CCOC(=O)c1c(-c2ccccc2)csc1NC(=O)C12CC3CCC1(C)C3(C)CO2 (centres undefined)	0.09
36	Cc1sc2nc(-c3ccccc3Cl)n(CC(=O)Nc3ccc(N(C)C)cc3)c(=O)c2c1C	-1.8
37	CCCc1oc2c(cc(NS(=O)(=O)c3ccc(Cl)c([N+](=O)[O-])c3)c3ccccc32)c1C(=O)OCC	0.08
38	CCOC(=O)C1=CN(Cc2ccc(Cl)cc2)C=C(C(=O)OCC)C1c1ccc(Br)cc1	1.6
39	COc1ccc(Cn2c(SC)nc3c(sc4ccccc43)c2=O)cc1	-0.78
40	COc1ccc(OC)c(N(CC(=O)Nc2cccc(Cl)c2)S(=O)(=O)c2ccccc2)c1	-0.36
41	Cc1ccc(C(O)(CN=Cc2ccccc2)c2ccc(C)cc2)cc1	-0.71
42	COC(=O)C1=C(C)N(C)C(C)=C(C(=O)OC)C1c1cccnc1	-0.89
43	Cc1nn(-c2ccccc2)c2c1C(=O)N(c1ccccc1)C(=O)C(C)(C)C2	-0.1
44	CC1CCN(S(=O)(=O)c2ccc3nc(-c4cccnc4)cc(C(=O)NC4CCCCC4C)c3c2)CC1 (centres undefined)	1.6
45	O=C(c1cccc2cccc(O)c12)N1CCCCC1	1.3
46	Cc1nn(C(C)(C)C)c(OC(=O)C(C)(C)C)c1Sc1ccccc1	-0.4
47	Clc1ccc(-c2ccc[nH]2)cc1	-1
48	O=[N+]([O-])c1cccc(C=Nc2ccc3nc(-c4ccc5ccccc5c4)oc3c2)c1O	-0.66
49	CCCC(C)NC(=O)c1cc(-c2ccccc2)nc2ccccc12 (centres undefined)	-1.4
50	Cc1cccc(OC(=O)CC2CS(=O)(=O)CC2CC(=O)Oc2cccc(C)c2)c1 (centres undefined)	0.09
51	Cc1ccc(C23CC4CC(CC(Cl)(C4)C2)C3)cc1[N+](=O)[O-]	-0.13
52	COc1ccc(N2C(=O)CSC2c2ccncc2)cc1 (centres undefined)	0.76
53	CC(=O)N1CCc2cc(Br)cc(S(=O)(=O)CCC(=O)Nc3ccc(C)cc3Br)c21	1.5
54	Cc1ccc(C2CC(C(F)(F)F)n3nc(C(=O)N4CCN(c5ccccc5)CC4)c(Cl)c3N2)cc1 (centres undefined)	-1
55	COc1cccc(C2C(C(C)=O)=C(O)C(=O)N2CCO)c1 (centres undefined)	-2.2
56	COC(=O)C1C(c2ccccc2)C(C(=O)O)C1c1ccccc1 (centres undefined)	-0.59
57	Cc1ccc(NC(=O)CSc2ccc(Nc3ccc(C)cc3)nn2)cc1	-0.37
58	CCC(=O)N1c2ccccc2-c2nnc(SC)nc2OC1c1c(OC)ccc2ccccc12 (centres undefined)	0.68
59	O=C(CSc1nc2ccccc2s1)Nc1ncc2c(n1)CC(c1ccco1)CC2=O (centres undefined)	-0.27
60	O=C(NCC1CCCO1)C1CCC(CNS(=O)(=O)c2ccc(F)cc2)CC1 (centres undefined)	-2.2

# Following part.
cpd	smiles	Measles inh
61	Cc1ccc(COc2ccc(C3C4=C(CC(C)(C)CC4=O)Nc4ncnn43)cc2)cc1 (centres undefined)	1.4
62	Cc1cccc(C2C=C(c3ccc(Br)cc3)Nc3nc4ccccc4n32)c1 (centres undefined)	0.77
63	CC(=O)C1C(c2ccc([N+](=O)[O-])o2)NC(=O)NC1(O)C(F)(F)F (centres undefined)	-0.04
64	Cc1nnc(NC(=O)c2ccc(S(=O)(=O)N(C)C3CCCCC3)cc2)o1	-0.2
65	Cc1ccc(NC(=O)CSc2ncn[nH]2)cc1	-0.13
66	CCc1ccc(NC(=O)C2CC(=O)N(c3ccccc3)C2)cc1 (centres undefined)	-1.9
67	O=C(NCCc1ccccc1)c1n[nH]n2c1nc(=O)c1ccccc12	0.3
68	Clc1ccccc1CN1CCN(Cc2c[nH]c3ccccc23)CC1	-0.51
69	Cc1cc(C)cc(C(=O)Nc2c3c(nn2-c2ccc([N+](=O)[O-])cc2)CS(=O)(=O)C3)c1	1.1
70	CCc1ccc(Sc2cc(C(=O)NCc3ccccn3)c3ccccc3n2)cc1	-1.1
71	O=C(Nc1ccccc1Cl)c1c(O)c2c([nH]c1=O)CCCC2	-0.92
72	O=C(Nc1ccc(NC(=O)c2cc3ccccc3o2)cc1)c1ccccc1	0.08
73	Nc1nc(F)cc(NCCO)n1	0.61
74	CN(C)c1ccc(C=Nc2nc3ccccc3n2CCN2CCOCC2)cc1	-0.45
75	C=CCn1c(=S)oc2ccccc21	0.05
76	Nc1nnc(SCC(=O)C2CC2)s1	0.39
77	CCc1nnc(NC(=O)COC(=O)CN2C(=O)c3ccccc3C2=O)s1	1.4
78	CCNC(=O)c1cc2c(=O)n3cccc(C)c3nc2n(CCOC)c1=N	1.3
79	COC(=O)c1c(NC(=O)c2ccccc2C)sc(C)c1C	0.03
80	COc1ccc(C)cc1NC(=O)c1ccc(NS(=O)(=O)c2cccs2)cc1	-0.55
81	Cc1ccc(C)n1-c1ccc(Oc2ccc(Br)cc2)cc1	-0.24
82	Cc1ccc(C(C)C)c(OCC(=O)Nc2ccccc2N2CCOCC2)c1	0.67
83	COc1ccc(-n2c(=O)c3ccccc3n(CC(=O)N3CCCC3)c2=O)cc1	-0.55
84	Cc1cc(=O)[nH]c(/N=C(\N)N2CCc3ccccc32)n1	1.8
85	Cc1ccc(C)n1-c1ccc(Oc2ccc(Cl)cc2)cc1	-0.45
86	O=C(O)C1CC=CCC1C(=O)Nc1ccc(S(=O)(=O)Nc2nccs2)cc1 (centres undefined)	-0.53
87	Cc1sc2nc(Cc3ccccc3)nc(N3CCCC3)c2c1C	-0.93
88	O=[N+]([O-])c1ccc(O)c(C=Nc2ccc3nc(-c4ccccc4)[nH]c3c2)c1	-0.21
89	Cc1ccc(-c2noc(-c3ccco3)n2)cc1	0.98
90	NC(=O)C1CCN(S(=O)(=O)c2ccc([N+](=O)[O-])cc2)CC1	-1

# (continued)
cpd	smiles	Measles inh
91	COC(=O)C1=C(C)NC(=O)NC1c1ccccc1OCc1ccccc1 (centres undefined)	0.64
92	O=C(Nc1ccc(Br)cc1)C(NS(=O)(=O)c1ccc(Br)s1)c1ccccc1 (centres undefined)	-0.32
93	CC(=O)N1CCc2cc(S(=O)(=O)NCc3ccccc3)ccc21	-1.4
94	CC(C)CC(=O)NS(=O)(=O)c1ccc(NC(=O)c2ccc(Cl)cc2)cc1	1.5
95	Cn1c2ccccc2c2nnc(SCC(=O)N3c4ccccc4Sc4ccccc43)nc21	-1.1
96	Cc1c(Cl)cccc1NS(=O)(=O)c1ccc2[nH]cc(C(=O)N3CCOCC3)c(=O)c2c1	0.64
97	COCCCNC(=O)c1ccc(Br)cc1	-0.51
98	CCOC(=O)c1c(C(C)(C)C)oc2ccc(OCc3ccccc3F)cc12	-0.09
99	CCOc1ccc(NC(=O)c2cc3nc(-c4ccc5c(c4)OCO5)cc(C(F)(F)F)n3n2)cc1	-0.11
100	Cc1ccccc1CSc1nc2nc(C)c(Cc3ccccc3)c(C)n2n1	-1.4
101	COc1ccc(NC(=O)c2sc3nc(-c4cccs4)ccc3c2N)cc1OC	-0.25
102	CCOC(=O)c1ccc(N2C(=O)C(C)S(=O)(=O)C2c2ccccc2)cc1 (centres undefined)	-0.28
103	Cc1cccc(C(=O)Nc2sc3c(c2C(=O)Nc2ccccc2Cl)CCC3)c1	0.38
104	O=C(O)c1ccc(N2CCCCC2)c([N+](=O)[O-])c1	0.84
105	Cc1cccc(N2COc3cc(C)c(Cl)c(C)c3C2)c1C	-0.34
106	COCCOC(=O)C1=C(C)N(C)C(=O)NC1c1ccccc1Cl (centres undefined)	-0.5
107	CCOc1cccc2cc(C(=O)Nc3cccc(C)c3)c(=Nc3ccc(C(=O)O)cc3)oc12	-1.2
108	Cc1ccc(CCNC(=O)CCCn2c(=O)[nH]c3ccsc3c2=O)cc1	0.88
109	COc1ccc(C2C(C(=O)O)CC(=O)N2c2ccc(OC)cc2)cc1 (centres undefined)	-0.09
110	CC1(C)CC(=O)C2=C(C1)Nc1cc(C(=O)c3ccccc3)ccc1NC2c1ccc([N+](=O)[O-])cc1 (centres undefined)	0.51
111	COc1ccc(C2=CC(c3ccccc3Cl)n3nnnc3N2)cc1 (centres undefined)	-0.54
112	CCOc1cc(C2Nc3ccccc3NC3=C2C(=O)CC(c2ccc(C)cc2)C3)cc([N+](=O)[O-])c1O (centres undefined)	1.2
113	C=CCOc1cccc(C2Nc3ccccc3-c3nnc(SC)nc3O2)c1 (centres undefined)	0.49
114	CC1=C(C(N)=O)C(c2ccccc2Cl)n2ncnc2N1 (centres undefined)	-0.05
115	COc1ccccc1NC(=O)CCn1nc(-c2ccccc2)c2ccccc2c1=O	-0.41
116	CCOC(=O)c1cccc(NS(=O)(=O)c2ccc3c(c2)CCN3C(C)=O)c1	-0.18
117	CCOC(=O)C1=C(c2ccccc2)NC(=O)NC1c1cccc([N+](=O)[O-])c1 (centres undefined)	-0.86
118	CC1(C(=O)O)CCC(C(=O)Nc2ccc(Nc3ccccc3)cc2)C1(C)C (centres undefined)	0.92
119	COC(=O)c1cccc2c1NC(c1ccccc1Br)C1CC=CC21 (centres undefined)	-0.55
120	Cn1c(C(=O)O)cc(=O)n(C)c1=O	0.2
121	Cc1noc(NS(=O)(=O)c2ccc(NC(=O)c3cnc4scc(C)n4c3=O)cc2)c1C	0.69
122	Cc1nn(C)c(C)c1S(=O)(=O)N1CCN(Cc2ccc3c(c2)OCO3)CC1	-0.78

# Gathered by group, the entries above with a COOH group
cpd	smiles	Measles inh
29	O=C(O)CN1C(=O)SC(CC(=O)Nc2nccs2)C1=O (centres undefined)	1.1
56	COC(=O)C1C(c2ccccc2)C(C(=O)O)C1c1ccccc1 (centres undefined)	-0.59
86	O=C(O)C1CC=CCC1C(=O)Nc1ccc(S(=O)(=O)Nc2nccs2)cc1 (centres undefined)	-0.53
104	O=C(O)c1ccc(N2CCCCC2)c([N+](=O)[O-])c1	0.84
107	CCOc1cccc2cc(C(=O)Nc3cccc(C)c3)c(=Nc3ccc(C(=O)O)cc3)oc12	-1.2
109	COc1ccc(C2C(C(=O)O)CC(=O)N2c2ccc(OC)cc2)cc1 (centres undefined)	-0.09
118	CC1(C(=O)O)CCC(C(=O)Nc2ccc(Nc3ccccc3)cc2)C1(C)C (centres undefined)	0.92
120	Cn1c(C(=O)O)cc(=O)n(C)c1=O	0.2

# This is a subset, so the mix of outcomes need not match the whole.
